Assay outcomes from PubChem.
Polio RdRp inh: poliovirus RdRp elongation inhibitors, primary screen, biochemical, fluorescence polarization, total intensity | Genome polyprotein (Poliovirus type 1 (strain Mahoney)), P03300 | poliovirus polymerase elongation; hits give low values | % elongation, % (compound at 16.7 µg/mL) | 150,000 compounds, 0.66% hits | AID 588519, 2011; in the data active means % elongation below about 90%; further: some results filed as inactive read as strong as hits
Target sequence (P03300 1749-2209 limits assumed): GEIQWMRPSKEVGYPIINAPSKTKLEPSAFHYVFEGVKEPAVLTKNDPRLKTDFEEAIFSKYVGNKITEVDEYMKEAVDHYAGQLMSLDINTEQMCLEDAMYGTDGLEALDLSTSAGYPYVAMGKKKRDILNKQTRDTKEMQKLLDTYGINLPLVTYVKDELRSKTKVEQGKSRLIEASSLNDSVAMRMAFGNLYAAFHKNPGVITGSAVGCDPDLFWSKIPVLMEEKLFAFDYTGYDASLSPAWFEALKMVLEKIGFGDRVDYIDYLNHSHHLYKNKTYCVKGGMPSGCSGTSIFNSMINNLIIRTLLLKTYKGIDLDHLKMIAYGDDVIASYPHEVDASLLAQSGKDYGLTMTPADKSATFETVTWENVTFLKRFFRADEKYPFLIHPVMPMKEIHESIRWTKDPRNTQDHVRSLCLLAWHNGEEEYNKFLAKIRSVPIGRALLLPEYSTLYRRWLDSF
Polio RdRp inh intensity: second read-out of Polio RdRp inh, no call of its own (marks repeat the call); % elongation; measured here: total intensity read-out; formula for this scale not given here;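 total fluorescence in place of polarization; lower means less elongation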
* hit, by the source's call. Some of the compounds tested (hit frequency here may not be typical).

SMILES	Polio RdRp inh	Polio RdRp inh intensity
Cc1ccc(CNC(=O)c2sc3nc[nH]c(=O)c3c2C)cc1	103	101
CCOC(=O)c1ccc2oc(=O)n(Cc3ccccc3)c2c1	110	111
Cc1ccc2c(=O)cc(C(=O)Nc3ccc(S(=O)(=O)N(C)Cc4ccccc4)cc3)oc2c1C	110	96
O=C(CSc1nnc2ccc3ccccc3n12)c1ccc(F)cc1	111	112
Cc1ccc(Cn2c(C(C)NC(=O)c3ccccc3)nc3ccccc32)cc1 (stereo not given)	111	106
CCc1ccc(NS(=O)(=O)c2ccc3[nH]cc(C(=O)NC4CCCC4)c(=O)c3c2)cc1	104	105
Cc1ccc(C(=O)c2cn(CC(=O)NCc3ccccc3Cl)c3nc(C)ccc3c2=O)cc1	111	110
O=C(Cn1cnc2c(oc3ccccc32)c1=O)Nc1ccc(OC(F)(F)F)cc1	112	105
Cc1ccc(NC(=O)[C@H](Cc2ccccc2)N2Cc3ccccc3C2=O)cc1F	109	113
Cc1c(CNCCc2ccc(S(N)(=O)=O)cc2)c(C(=O)O)c(C)n1Cc1ccc(Cl)cc1	106	105

Four of the compounds above, comma-delimited:
Molecule,Polio RdRp inh,Polio RdRp inh intensity
Cc1ccc(Cn2c(C(C)NC(=O)c3ccccc3)nc3ccccc32)cc1 (stereo not given),111,106
CCc1ccc(NS(=O)(=O)c2ccc3[nH]cc(C(=O)NC4CCCC4)c(=O)c3c2)cc1,104,105
Cc1ccc(C(=O)c2cn(CC(=O)NCc3ccccc3Cl)c3nc(C)ccc3c2=O)cc1,111,110
O=C(Cn1cnc2c(oc3ccccc32)c1=O)Nc1ccc(OC(F)(F)F)cc1,112,105

Next entries follow.
SMILES	Polio RdRp inh	Polio RdRp inh intensity
Cc1nc(-c2ccccc2)sc1CCNS(=O)(=O)c1ccccc1	106	105
CCOc1ccc(CCNC(=O)CSc2cc(=O)n(C)c3ccccc23)cc1OCC	104	102
Cn1cc(S(=O)(=O)N2CCCCCC2)cc1C(=O)NCc1ccccc1Cl	108	94
CC(C)CNC(=O)N1CCN(S(=O)(=O)c2ccc3c(ccn3C)c2)CC1	108	106
N#Cc1ccccc1Cn1c(=O)n(-c2ccccc2)c(=O)c2c3c(sc21)CCC3	107	107
CCOC(=O)N1CCC(NC(=O)c2c(C)nn(-c3ccc(C)cc3)c2-n2cccc2)CC1	104	104
Cc1ccc(Cl)cc1N1CCN(C(=O)c2sc3nc4n(c(=O)c3c2C)CCC4)CC1	103	100
Cc1cccc(NC(=O)CCc2c(C)nc3nc(CNC(=O)c4cccc(F)c4)nn3c2C)c1	108	109
Cc1c(C(=O)NCc2ccccc2)oc2c1-c1[nH]ncc1CC2	115	120
Cn1c(=O)c2c(n3c4ccccc4nc13)NC(=O)CC2c1cccc(F)c1 (stereo not given)	102	99
Cc1ccc(Cl)cc1N1CCN(C(=O)c2noc3c2CCCC3)CC1	104	105
COc1cccc(NC(=O)Cn2c(=O)n(-c3ccc(Cl)cc3)c(=O)c3sc4ccccc4c32)c1	107	109
CCOc1ccc(S(=O)(=O)NCCc2sc(-c3ccc(C)cc3)nc2C)cc1	107	112
CSc1ccc(Cn2nnc(C(=O)Nc3ccc(C)cc3Cl)c2N)cc1	99	102
CCOC(=O)c1ccc(NC(=O)c2c(NCc3cccs3)sc3c2CCCC3)cc1	108	113
CCOc1cc(C(=O)Nc2cc3c(cc2N2CCOCC2)n(C)c(=O)n3C)cc(OCC)c1OCC	104	110
Cc1ccc(-c2nc3ncccc3o2)cc1NC(=O)c1ccccc1Br	105	109
CCCCSCCCNC(=O)C1CCC(CNS(=O)(=O)c2c(C)cc(C)cc2C)CC1 (stereo not given)	105	110
O=c1c2cnn(-c3ccc(F)cc3)c2ncn1Cc1ccc(F)cc1	112	112
CCn1cc(C(=O)N(C)Cc2ccccc2)c(=O)c2cc(S(=O)(=O)N3CCCCCC3)ccc21	104	107
COc1ccc(-c2nc3ccc(NS(=O)(=O)c4ccc(Cl)cc4)cc3o2)cc1	106	110
Cc1ccc(C(=O)Nc2cc3c(cc2C)n(C)c(=O)c(=O)n3C)cc1	103	108
Cc1ccc(C)c(NC(=O)CN2C(=O)C(C)(C)c3ccccc32)c1	109	112
O=C(NCc1ccccc1Cl)C1CCC(CNS(=O)(=O)c2ccc(Cl)cc2)CC1 (stereo not given)	103	103
CCOc1ccc(NC(=O)CSC2=Nc3ccccc3C3=NC(CCC(=O)NCc4ccccc4)C(=O)N23)cc1 (stereo not given)	105	113
C=Cc1ccc(Cn2c(C(=O)O)c(CNCc3ccccc3)c3ccc(OC)cc32)cc1	108	100
COc1ccc(-c2nc(S(=O)(=O)c3ccc(C)cc3)c(N3CCCCC3)o2)cc1	104	107
CCOC(=O)c1[nH]c2c(c1Cc1ccccc1)C(=O)CC(c1ccc(OC)cc1)C2 (stereo not given)	103	105
Cc1ccccc1CN1C(=O)c2ccccc2S(=O)c2ccc(C(=O)N3CCOCC3)cc21 (stereo not given)	105	104
COc1ccc(-c2cc(C(F)(F)F)nc(SCC(=O)NCc3ccc(F)cc3)n2)cc1	106	112
Cc1ccc(CCNC(=O)c2cn(C)c3ccc(S(=O)(=O)N4CCCCC4)cc3c2=O)cc1	101	101
COc1cc(OC)c(NS(=O)(=O)c2cc3c(cc2C)NC(=O)CO3)cc1Cl	114	113
Cc1ccc(Cl)cc1-n1ncc2c(NCCCn3ccnc3)ncnc21	96	98
CCCn1ccc2c(OCC(=O)Nc3cc(C)ccc3C)cccc2c1=O	113	105
Cc1oc2ccc(O)c(CN3CCOCC3)c2c1C(=O)Nc1ccccc1	110	108
CCOc1cc(CNC(=O)C2COc3ccccc3C2)cc(OCC)c1OCC (stereo not given)	109	111
CC(C)c1ccccc1NC(=O)Cn1cnc2c1c(=O)n(C)c(=O)n2C	108	107
CCC(C)NC(=O)c1[nH]c2cc(C)ccc2c1Sc1ccc(Cl)cc1 (stereo not given)	106	109
CCC(=O)Nc1ccccc1-c1nc2ccccc2n(C(C)C(=O)Nc2ccc(OC)cc2)c1=O (stereo not given)	106	110
Cc1ccccc1NS(=O)(=O)c1ccc2[nH]cc(C(=O)NC(C)c3ccccc3)c(=O)c2c1 (stereo not given)	103	104

19 structures from above, arranged by molar mass, low to high.
SMILES	Polio RdRp inh	Polio RdRp inh intensity
Cc1ccc(C)c(NC(=O)CN2C(=O)C(C)(C)c3ccccc32)c1	109	112
Cc1ccc(C(=O)Nc2cc3c(cc2C)n(C)c(=O)c(=O)n3C)cc1	103	108
O=c1c2cnn(-c3ccc(F)cc3)c2ncn1Cc1ccc(F)cc1	112	112
CC(C)c1ccccc1NC(=O)Cn1cnc2c1c(=O)n(C)c(=O)n2C	108	107
CCCn1ccc2c(OCC(=O)Nc3cc(C)ccc3C)cccc2c1=O	113	105
Cc1oc2ccc(O)c(CN3CCOCC3)c2c1C(=O)Nc1ccccc1	110	108
Cc1ccc(Cl)cc1-n1ncc2c(NCCCn3ccnc3)ncnc21	96	98
CCC(C)NC(=O)c1[nH]c2cc(C)ccc2c1Sc1ccc(Cl)cc1 (stereo not given)	106	109
CCOc1cc(CNC(=O)C2COc3ccccc3C2)cc(OCC)c1OCC (stereo not given)	109	111
CCOC(=O)c1[nH]c2c(c1Cc1ccccc1)C(=O)CC(c1ccc(OC)cc1)C2 (stereo not given)	103	105
COc1cc(OC)c(NS(=O)(=O)c2cc3c(cc2C)NC(=O)CO3)cc1Cl	114	113
C=Cc1ccc(Cn2c(C(=O)O)c(CNCc3ccccc3)c3ccc(OC)cc32)cc1	108	100
COc1ccc(-c2cc(C(F)(F)F)nc(SCC(=O)NCc3ccc(F)cc3)n2)cc1	106	112
O=C(NCc1ccccc1Cl)C1CCC(CNS(=O)(=O)c2ccc(Cl)cc2)CC1 (stereo not given)	103	103
Cc1ccccc1CN1C(=O)c2ccccc2S(=O)c2ccc(C(=O)N3CCOCC3)cc21 (stereo not given)	105	104
Cc1ccccc1NS(=O)(=O)c1ccc2[nH]cc(C(=O)NC(C)c3ccccc3)c(=O)c2c1 (stereo not given)	103	104
Cc1ccc(CCNC(=O)c2cn(C)c3ccc(S(=O)(=O)N4CCCCC4)cc3c2=O)cc1	101	101
CCn1cc(C(=O)N(C)Cc2ccccc2)c(=O)c2cc(S(=O)(=O)N3CCCCCC3)ccc21	104	107
CCOc1ccc(NC(=O)CSC2=Nc3ccccc3C3=NC(CCC(=O)NCc4ccccc4)C(=O)N23)cc1 (stereo not given)	105	113

Next structures follow.
SMILES	Polio RdRp inh	Polio RdRp inh intensity
O=c1c2ccccc2nc(/C=C\c2cccc(Br)c2)n1-c1ccc(O)cc1	107	102
Cc1ccc(Sc2ccc(N3CCCC(C(=O)Nc4ccc(F)cc4)C3)nn2)cc1 (stereo not given)	108	112
O=C(CSc1nnc(-c2ccccc2)c(-c2ccccc2)n1)NCCc1ccccc1	114	114
Cc1ccc(-c2cc3c(n2-c2ccc(F)cc2)CC(C)(C)CC3=O)cc1	108	110
Cc1ccc(C)c(NC(=O)C(C)N(c2ccccc2)S(C)(=O)=O)c1 (stereo not given)	108	103
COc1ccccc1CNC(=O)C1CCN(C(=O)c2sccc2-n2cccc2)CC1	114	110
O=C(CSc1nc(=O)n(CCN2CCOCC2)c2c1CCC2)Nc1cccc(Cl)c1	109	111
Cc1cc(C)c(NC(=O)Cn2nnc(S(=O)(=O)c3ccc(C)c(C)c3)c2N)c(C)c1	105	110
O=C(CN1C(=O)COc2ccc(S(=O)(=O)N3CCCCCC3)cc21)NCc1ccc(Cl)cc1	110	96
Cc1ccc2c(c1)C(c1ccccc1)N(C(=O)c1ccc(S(=O)(=O)N3CCCC3)cc1)CC(=O)N2 (stereo not given)	104	106
O=C(CN1C(=O)c2cccnc2Oc2ccc(Cl)cc21)NCCCN1CCCCC1	102	110
COc1ccc(N2CCN(C(=O)c3ccc4c(c3)N(Cc3cccc(Cl)c3)C(=O)c3ccccc3S4(=O)=O)CC2)cc1	108	114
O=C(c1ccccc1Cl)N1CCN(CCc2ccccn2)CC1	103	104
CCS(=O)(=O)c1ncc(Cl)c(C(=O)Nc2c(C(=O)Nc3cccc(C)c3)oc3ccccc23)n1	118	118
O=C(Nc1ccc(F)c(Cl)c1)N(Cc1ccc2c(c1)OCO2)C1CCN(Cc2ccccc2)CC1	107	107
CCOc1ccc(NC(=O)CSC2=Nc3ccccc3C3=NC(CC(=O)NCc4ccco4)C(=O)N23)cc1 (stereo not given)	107	100
CCOc1ccc(Nc2nc(-c3cccc(Cl)c3)c3c(n2)-c2ccccc2OC3)cc1	103	109
Cc1ccc(C(=O)c2oc3ccccc3c2NC(=O)Cc2ccccc2)cc1	107	111
COc1cccc(-n2cc(C(=O)NCc3ccccc3OC)c3ccccc3c2=O)c1	105	105
Cc1ccc(CN2C(=O)C3(c4ccccc42)N(c2cccc(F)c2)C(=O)CS3(=O)=O)cc1 (stereo not given)	104	109
CCc1ccc(OCC2c3cc(OC)c(OC)cc3CCN2C(=O)Cc2ccc(OC)c(OC)c2)cc1 (stereo not given)	108	107
CC(=O)c1ccc(N2CCN(C(=O)c3cc4ccc5cccnc5c4[nH]3)CC2)cc1	103	99
Cc1ccc(OCc2ccc(-c3nc(C#N)c(NCc4ccccc4Cl)o3)o2)cc1	116	100
COc1ccc(NC(=O)Cc2ccc(NC(=O)N3CCCCc4ccccc43)cc2)c(OC)c1	108	112
COc1ccc(NC(=O)Cn2cc(S(=O)(=O)Cc3ccc(F)cc3)c3ccccc32)cc1OC	92	113
CN(Cc1ccccc1)c1nc(-c2ccc(F)cc2)cc(C(F)(F)F)n1	107	108
CC1=C(c2ccc(C)c(C)c2)S(=O)(=O)N=C1N1CCN(c2cccc(C)c2)C(C)C1 (stereo not given)	106	113
CCOC(=O)c1c(NC(=O)/C=C/c2ccc(OC)c(OC)c2)sc(C(C)=O)c1C	92	90
Cc1c(CCNC(=O)Cc2ccc(F)cc2)sc2nc(-c3ccc(F)cc3)nn12	101	102
COc1ccc(N2CCN(CC(O)COc3c(OC)cccc3OC)CC2)cc1 (stereo not given)	100	99
Cc1ccccc1CCNC(=O)c1ccc2c(c1)c(C)c(C)n2C	107	107
Cc1ccc(SCCNC(=O)CN(c2cccc(C)c2C)S(C)(=O)=O)cc1	107	111
Cc1cccn2c3c(c(=O)nc12)C(c1ccc(F)cc1)CC(=O)N3 (stereo not given)	105	101
Cc1ccccc1NC(=O)c1ccc(F)c(S(=O)(=O)NC2CCCC2)c1	109	109
COc1ccc(CNc2ncnc3c2c(-c2ccccc2)cn3-c2ccc(C)c(Cl)c2)cc1	103	111
CCC1CN(C(=O)C2CCN(S(=O)(=O)c3c(C)noc3/C=C/c3ccccc3F)CC2)c2cc(C)ccc2O1 (stereo not given)	110	109
COc1ccccc1CNC(=O)c1cc(S(=O)(=O)N2CCCC(C)C2)cn1C (stereo not given)	106	111
CC(=O)c1ccc(N2CCN(C(=O)c3cc(S(=O)(=O)N4CCCCCC4)cn3C)CC2)cc1	110	112
